StopGo FLuc: Primary qHTS Assay for Foot and Mouth Disease Virus Antivirals against NCGC Sytravon and CBC Compound Libraries: Firefly Luciferase Signal; Potency, µM (doses to about 57.5 µM), for inactives: top-dose signal change, negative = less light; 120,000 compounds, 0.23% hits; AID 1745856, 2022; HEK cells with a luciferase reporter of 2A StopGo recoding; active = well fitted falling curve with a large enough effect; inconclusive = small, poorly fitted or top-dose-only effect; inactive = no such curve, though single readings can be large or run the other way; note: nearly all actives have a fitted effect of over 60% in size; overnight with compound
2A Renilla: Primary qHTS Assay for Foot and Mouth Disease Virus Antivirals against NCGC Sytravon and CBC Compound Libraries: Renilla Luciferase Signal. 120,000 compounds, 0.32% hits. AID 1745857, 2022. HEK cells with a luciferase reporter of 2A StopGo recoding. Potency, µM (top dose mostly 57.5 µM), inactives show at the top dose signal change, negative = less light; active means well fitted falling curve with a large enough effect; inconclusive means small, poorly fitted or top-dose-only effect; inactive means no such curve, though single readings can be large or run the other way; note: nearly all actives have a fitted effect of over 55% in size; overnight with compound
Numbers without * were called inactive; u = inconclusive; & = joins results of further samples; [ ] = dose if it differs, or a comment. % is set by controls: 0 for no effect and ±100 for the full control effect; potency is the fitted concentration of half-maximal effect.

SMILES	StopGo FLuc	2A Renilla
O=C(CC1(O)C(=O)N(CN2CCOCC2)c2ccccc21)c1ccc2ccccc2c1 (stereo not given)	85.9%[activator]	69.4%[activator]
Cc1ccc(-n2nnnc2C2(N)CCCCC2)cc1	5.0%	5.1%
CCCn1c(=N)n(CC(O)COc2ccccc2OC)c2ccccc21 (stereo not given)	5.4%	-2.7%
CC(SCCCn1c(=O)c2c(ncn2C)n(C)c1=O)c1ccccc1Cl (stereo not given)	5.3%	-1.5%
CC1=C(C(=O)OCC(F)(F)C(F)(F)F)C(c2cc3c(cc2Br)OCO3)NC(=O)N1 (stereo not given)	-14.1%	-10.8%
CCn1c(=O)n(CC(=O)N(C)Cc2ccc(C)cc2C)c2ccccc21	-10.1%	-1.1%
CCn1c(Cn2nnc(-c3ccccc3Cl)n2)nc2cc(S(=O)(=O)N3CCCCC3)ccc21	-6.0%	102.0%[activator]
Cc1ccc(C(CNc2oc(C(C)(C)C)nc2C#N)N2CCOCC2)cc1 (stereo not given)	10.1%	20.2%
Cc1ccc(-c2cnc(CCC(=O)NC(C)c3ccc(S(C)(=O)=O)cc3)o2)cc1C (stereo not given)	-3.3%	7.7%
O=C(NC1CC1)C1CCN(CCCc2nc3ccccc3o2)CC1	-14.2%	-14.6%
COc1ccc2c(c1)c1c(c(=O)n(-c3cccc(C)c3)c(=O)n1CC(=O)Nc1c(C)cc(C)cc1C)n2C	-13.0%	0.4%
Cc1cc(N(C)C)n2nc(Cc3ccc(Cl)cc3)nc2n1	13.8%	4.6%
O=C(CSc1ncnc2nc[nH]c12)Nc1ccc(Cl)cc1	0.0%	11.0%
COc1ccccc1NC(=O)CSc1nnc2c3ccccc3n(C(C)C)c2n1	0.0%	-27.5%
Cc1cccc(Oc2coc3cc(OCc4ccc(F)cc4)ccc3c2=O)c1	4.5%	-4.9%
COc1ccccc1-c1nc(CNC(=O)NC2CCCCC2)c(C)o1	-2.7%	67.7%[activator]
COc1ccc(CCNC(=O)CCSc2nc(Cl)nc3nc[nH]c23)cc1OC	9.0%	-1.5%
Cc1ccc(Nc2nc(-c3ccc(S(=O)(=O)N4CCCCC4)cc3)cs2)cc1C	8.2%	-12.7%
O=C(Nc1c(NCc2ccccc2)c2ccccc2oc1=O)c1ccc(Br)cc1	8.7%	3.1%
O=[N+]([O-])c1cc(C(F)(F)F)cc2nc3ccccn3c12	0.0%	3.6%
Cc1ccc(OCCNC(C)C)cc1	5.0%	-5.7%
CCOC(=O)c1cc(-c2ccccc2)n(CCCC(=O)Nc2ccc(C)cc2C)c1C	-10.3%	-8.9%
O=C(CSc1nc2ccccc2n1Cc1ccccc1Cl)NCc1ccccc1	-14.5%	32.3%[activator]
COc1ccc(-c2nn(-c3ccc(F)cc3F)c3c2cnc2ccc(F)cc23)cc1	-9.0%	-4.6%
COc1cccc2sc(N(Cc3cccnc3)C(=O)Cc3ccccc3)nc12	3.0%	148.2%[activator]
Cc1ccc(-c2cc(C(F)(F)F)on2)cc1S(=O)(=O)NCc1ccc(F)cc1	13.2%	98.6%[activator]
CCN(CC)S(=O)(=O)c1ccc(C(=O)Nc2ccc(C)cc2Br)cc1	0.0%	19.1%
CCOc1ccc2c(c1)cc(C(=O)NC(C)C)n2C	6.1%	4.1%
COc1ccc2c(c1)Cc1sc(NC(=O)c3cccc(F)c3)nc1-2	9.8%	-3.4%
Cc1ccc(Cl)cc1N1CCN(S(=O)(=O)c2ccc3c(c2)CCCN3C(=O)C2CCC2)CC1	-9.1%	11.6%
CCCCn1c(=O)n(-c2cc(OC)ccc2OC)c(=O)c2c3c(sc21)CN(C(C)=O)CC3	37.0%[activator]	43.7%[activator]
Cc1cc(C)cc(OCC(=O)Nc2nonc2-c2ccc(Br)cc2)c1	0.0%	-3.6%
O=c1oc2ccc3ccccc3c2cc1-c1nnc(Nc2cc(C(F)(F)F)ccc2Cl)s1	-5.0%	-0.1%
COCC(C)n1c(COc2ccccc2F)nnc1SCc1ccc(C(C)(C)C)cc1 (stereo not given)	u	-9.6%[1.06 µM]
Cc1cc(Nc2cccc(C(F)(F)F)c2)nc2ccc(NC(=O)c3ccc(N(C)C)cc3)cc12	-2.0%	4.8%
CCOc1cc2c(cc1CNC(=O)c1ccc(Cl)c(S(N)(=O)=O)c1)OC(C)C2 (stereo not given)	-3.2%	45.3%[activator]
O=C(OCc1ccccc1[N+](=O)[O-])c1nn(-c2ccc(F)cc2)c2c1CCC2	-1.2%	-3.6%
CCCCCc1ccc(-c2ccc(C3CCC(CC)CC3)cc2)nc1 (stereo not given)	0.0%	20.0%
CC(C)(C)NC(=O)C(=O)NC(C)(C)C	1.6%	0.0%
CC1=C(C(=O)NCc2ccccc2C)C2(CCN(S(=O)(=O)c3cccs3)CC2)OC1=O	5.5%	10.2%
CC12CN3CN(C1)CC(C)(C3)C2=O	14.0%	10.7%
CN(Cc1cccs1)C(=O)C1CC=CCC1c1nc2ccccc2s1 (stereo not given)	0.0%	15.4%
O=c1oc(-c2ccc(F)cc2)nn1CC(O)COc1ccc2ccccc2c1 (stereo not given)	0.0%	37.3%[activator]
COc1cccc(NC(=O)CSc2nnc(-c3ccc(C)cc3)c(=O)[nH]2)c1	10.3%	-16.2%
CCN(CC)c1ccc(NC(=O)CSc2nnc(C)c(=O)[nH]2)cc1	-6.5%	-15.1%
Cc1cc2[nH]c(=O)c(=O)[nH]c2cc1S(=O)(=O)N1CCN(c2cccc(C)c2C)CC1	-5.6%	9.8%
CSc1cccc(Nc2cc(C(=O)NCCCN(Cc3ccccc3)C(C)C)c3ccccc3n2)c1	-12.9%	-1.8%
CCCCNC(=O)c1ccccc1NC(=O)CN(c1ccccc1)S(=O)(=O)N(C)C	-7.6%	38.8%[activator]
O=C(Nc1cccc(-c2nc3ccccc3o2)c1)c1cccs1	48.3%[activator]	9.8%
O=C1CCC/C(=N/NC(=O)c2ccc(CSc3ccc(Cl)cc3)cc2)C1	0.0%	-1.1%
Cc1ccc(NC(=O)c2ncn(-c3ccccc3)n2)c(Cl)c1	0.0%	-2.5%
COc1ccccc1OCC(=O)Nc1cccc2cccnc12	64.3%[activator]	19.1%
CCCCCCCCCCSCCC(=O)O	9.8%	-8.9%
CCOc1nc2ccccc2nc1N1CCC(C(=O)Nc2ccc(OC)cc2OC)CC1	6.0%	1.7%
O=C(c1ccc(Cl)cc1)N1CCC(c2ccncc2)CC1	12.6%	-7.3%
COc1ccc(OC)c(NC(=O)Cn2nc3ccc(SC4CCCCC4)nn3c2=O)c1	25.4%	-0.3%
CCOC(=O)c1cc(NCc2ccccc2)ccc1N1CCOCC1	16.0%	21.9%
C=CCNc1nc(C(=O)OCC(=O)c2ccc(C3CCCCC3)cc2)cs1	74.8%[activator]	-1.6%
CCOc1ccc(NC(=O)c2ccc(Cl)cc2Cl)c2cccnc12	56.1%[activator]	-14.2%
CSc1ccc(CCNC(=O)Cn2c(=O)c(=O)n(C)c3ccccc32)cc1	4.2%	10.2%

Continued.
SMILES	StopGo FLuc	2A Renilla
COc1cc(-c2cc(C(=O)O)c3ccccc3n2)cc(OC)c1OC	10.4%	-3.3%
O=C(OCC(=O)c1c[nH]c2ccccc12)c1ccc2ccccc2n1	-0.8%	-9.7%
O=C(c1ccccc1Br)N1CCC(c2nc3ccccc3o2)CC1	-22.1%	-5.9%
CSc1ncc(C(=O)NCc2ccc(C)cc2)c(C)n1	-11.5%	-7.0%
O=C(Nc1ccccc1)N(Cc1ccc2c(c1)OCO2)C1CCN(Cc2ccccc2)CC1	-11.7%	-0.2%
COc1ccc(-n2c(SCC3CCCCO3)nnc2-c2ccccc2OC)cc1 (stereo not given)	43.3%[activator]	9.3%
Cn1c(=O)c2c(nc(CN3CCN(Cc4ccccc4)CC3)n2Cc2ccc(Cl)cc2)n(C)c1=O	-18.0%	-21.3%
O=C(NC1CCN(Cc2ccc(F)cc2)CC1)c1cccs1	0.7%	-6.5%
COc1ccc(N2CCN(C(=O)C3CCN(c4nc5ccc(C)cc5[nH]4)CC3)CC2)cc1	u	u
CCn1cc2nc(SCc3cccc(C(F)(F)F)c3)n(Cc3ccc(Cl)cc3)c(=O)c2n1	-13.8%	-7.1%
O=C(O)c1ccccc1S(=O)(=O)Cc1ccc(F)cc1	6.3%	0.6%
COc1ccc(CCNC(=O)CCSc2nc(Cl)nc3nc[nH]c23)cc1	2.9%	-3.1%
O=C(CC1CCCO1)NC(c1ccccc1)C1CC1 (stereo not given)	-7.2%	6.9%
Cc1ccc2cccc(NC(=O)C(C)Oc3ccc(C(C)C)cc3)c2n1 (stereo not given)	5.2%	6.5%
COCCCn1c(=N)c(C(=O)NC2CCCCC2)cc2c(=O)n3ccccc3nc21	-4.8%	1.4%
CC(=O)c1cc2c(cc1NC(=O)c1ccco1)OCCO2	105.2%[activator]	10.0%
CN1CCN(c2oc(-c3ccccc3)nc2S(=O)(=O)c2ccc3c(c2)OCCO3)CC1	-12.7%	34.1%[activator]
CN(C)CCN(Cc1ccccc1)Cc1ccccc1	-13.4%	-2.4%
COCCCN(C)Cc1cccc(C#N)c1	-0.5%	-17.3%
CCN1c2ccccc2-c2nc(SCC(=O)Nc3cc(F)ccc3F)ncc2S1(=O)=O	-10.7%	-10.7%
O=C1CCCC2=C1C(c1ccc(Cl)c(Cl)c1)C1=C(CCCC1=O)O2	-15.9%	2.7%
O=C(CN1CCc2ccccc2C1)N1N=C(c2ccco2)CC1c1cccs1 (stereo not given)	-5.2%	42.1%[activator]
Cc1nn(-c2ccccc2)c(C)c1CN(C)C(=O)CNC(=O)c1ccc(Cl)cc1	u	u
COc1cc(OC)c(NC(=O)C(NS(=O)(=O)c2cccc3nsnc23)c2ccccc2)cc1Cl (stereo not given)	-2.8%	69.5%[activator]
N#Cc1cccc(NCc2c(F)cccc2Cl)c1	11.3%	18.9%
COc1ncccc1CNC(=O)Nc1nnc(C2CC2)s1	u	u
Cc1ccc(-c2nc(SCC(=O)N3CCc4ccccc43)c3c(=O)n(C)c(=O)n(C)c3n2)cc1	31.1%[activator]	14.8%
CC(C)(C)c1nnc(Nc2cc(Cl)ccc2Cl)[nH]c1=O	3.6%	-10.6%
CCSC1=N/C(=C\c2cc(C(C)(C)C)c(O)c(C(C)(C)C)c2)C(=O)S1	10.2%	-2.8%
CCN(C(=O)c1cc2c(s1)-c1ccccc1OC2)c1cc(Cl)ccc1OC	-38.7%	u
CCCOc1ccc(C(=O)Nc2ccc(-c3cc4ccccc4oc3=O)c(C)c2)cc1	7.94µM*	4.47µM*
COc1cccc(-c2nc(C(N)=O)c3c(n2)n(-c2ccc4c(c2)OCO4)c(=O)n3C)c1OC	3.4%	-5.4%
N#Cc1c(Oc2ccccc2)cc(Oc2ccccc2)cc1SCc1ccccc1	13.1%	36.7%[activator]
Cc1c(C)n(Cc2ccccc2)c2ccc(C(=O)NCCc3ccccc3Cl)cc12	7.8%	4.9%
O=C(Nc1ccc(Cc2ccncc2)cc1)C12CC3CC(CC(Br)(C3)C1)C2	17.6%	21.1%[1.06 µM]
O=C(Nc1cccc(C(=O)OCc2cc(=O)n3nc(C4CC4)sc3n2)c1)c1cccc(F)c1	-7.3%	-4.7%
Cc1ccccc1NC(=O)CSCn1nnc2c(=O)[nH]c(Cc3ccc(F)cc3)nc21	-4.0%&1.5%	10.0%&16.3%
CC(C)c1ccc(NC(=O)c2ccc3oc(=O)c(S(=O)(=O)c4ccc(F)cc4)cc3c2)cc1	35.2%[activator]	-10.5%
Cc1ccc(CSCC(=O)N2CCN(c3cc(Cl)ccc3C)CC2)cc1	-12.9%	-7.0%
N#Cc1ccccc1NC(=O)c1cc2c(s1)CCCC2	218.7%[activator]	18.7%
Cc1cc2nc(CSc3nc4ccc(NC(=O)c5ccccc5)cc4s3)cc(=O)n2o1	122.1%[activator]	59.1%[activator]
CC(OC(=O)c1cc2c(F)cccc2s1)C(=O)N1CCNC1=O (stereo not given)	52.2%[activator]	-13.7%
CSc1nc2ccc(NC(=O)c3nn(C)c(=O)c4ccccc34)cc2s1	48.6%[activator]	0.5%
Cc1c(Cl)cccc1NC(=O)C1CCN(S(=O)(=O)c2ccc(N3CCCC3=O)cc2)CC1	-7.3%	-8.3%
CC1CCN(CCNC(=O)C2CCN(CC(F)(F)F)CC2)CC1	4.3%	-7.5%

Compound activity deposited in PubChem BioAssay by National Center for Advancing Translational Sciences (NCATS).
